2A StopGo: FMDV 2A StopGo reporter, luciferase signal | actives 1.2% (n = 410,000) | Potency, µM (top dose mostly 57.9 µM), for the others: top-dose signal change, negative = less light | human cells with a luciferase reporter of 2A StopGo recoding; control for the full effect not named in the record; active = well fitted falling curve with a large enough effect; inconclusive = small, poorly fitted or top-dose-only effect; inactive = no such curve, though single readings can be large or run the other way; tested in HEK293T cells; also: % is scaled to controls: 0 for no effect and ±100 for the full control effect; nearly all actives have a fitted effect of over 45% in size; luciferase light after 4 h
RE007 growth inh: less growth of the S. pombe RE007 Vpr strain. actives 0.21% (n = 360,000). S. pombe RE007 Vpr strain, BacTiter-Glo ATP luminescence, 24 h; control for the full effect not named in the record. Potency, µM (titrated, usually from 92.2 µM), for inactives: at the highest dose activity change, negative = less growth; active = well fitted falling curve with a large enough effect; inconclusive = small, poorly fitted or top-dose-only effect; inactive = no such curve, though single readings can be large or run the other way;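 also: % is scaled to controls: 0 for no effect and ±100 for the full control effect; nearly all actives have a fitted effect of over 50% in size; the assay follows cell death caused by Vpr and the record does not say whether a fall means rescue or toxicity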
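Fission yeast strain RE007, carrying one chromosomally integrated HIV-1 vpr copy, was seeded at OD 0.01 in PMG+AL medium with 23 nL pinned compound. After 24 h at 30 °C and 99% humidity, viability was read by BacTiter-Glo luminescence.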
Cruzain Triton: cruzain (T. cruzi) inhibition with detergent. actives 0.43% (n = 200,000). Potency, µM, without a hit: max response, negative = inhibition, hits mostly inhibitors. purified cruzain, Z-FR-AMC fluorescence, 0.01% Triton. P25779;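 also: plate controls were neutral wells for no effect and buffer without enzyme for full effect; nearly all actives have a fitted effect of over 40% in size; top concentration of the series not given in the record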
Target sequence (P25779 123-467 limits assumed): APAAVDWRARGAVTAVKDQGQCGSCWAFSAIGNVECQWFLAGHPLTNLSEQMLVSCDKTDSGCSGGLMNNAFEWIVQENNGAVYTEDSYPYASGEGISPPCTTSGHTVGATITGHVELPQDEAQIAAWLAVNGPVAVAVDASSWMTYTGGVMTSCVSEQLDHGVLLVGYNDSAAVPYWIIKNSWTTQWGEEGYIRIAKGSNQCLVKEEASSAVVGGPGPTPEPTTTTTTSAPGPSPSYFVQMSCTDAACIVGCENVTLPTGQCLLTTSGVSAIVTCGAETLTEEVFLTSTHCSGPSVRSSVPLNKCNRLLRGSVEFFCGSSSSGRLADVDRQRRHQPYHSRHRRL
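Compounds were screened in titration against cruzain (1.5 nM) with 0.01% Triton X-100 to counter colloidal aggregation. Activity was the AMC fluorescence increase over 60 s after adding 2 uM Z-FR-AMC at pH 5.5.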
Cruzain inh noDet: inhibitors of Trypanosoma cruzi cruzain without detergent | purified cruzain, Z-FR-AMC fluorescence, no detergent | Potency, µM, for inactives: max response, negative = inhibition, actives largely listed as inhibitors | actives 2.3% (n = 200,000);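 also: plate controls were enzyme without inhibitor for no effect and buffer without enzyme for full effect; nearly all actives have a fitted effect of over 40% in size; top concentration of the series not given in the record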
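Detergent-free condition (0.00005% Triton X-100) in acetate buffer pH 5.5 with DTT. 1.5 nM enzyme and compound were pre-mixed 15 min, then 2 uM Z-FR-AMC substrate added; reaction progress from fluorescence change between first and third reads (60 s).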
NS1 function inh: influenza NS1 inhibition | actives 0.4% (n = 270,000) | Potency, µM (titrated, usually from 46.1 µM), without a hit: at the highest dose activity, positive = more growth | AID 2326 | S. cerevisiae slowed by influenza A NS1, growth recovery by OD600; active means well fitted rising curve with a large enough effect; inconclusive means small, poorly fitted or top-dose-only effect; inactive means no such curve, though single readings can be large or run the other way; also: nearly all actives have a fitted effect of over 50% in size
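In this qHTS, NS1 from influenza A is expressed in budding yeast, where it slows growth. Cells are switched from glucose to 2% galactose medium (pH 6.0, -URA), treated with compound, and growth recovery is read at OD600.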
Lassa entry inh: inhibitors of Lassa virus binding or cell entry; Potency, µM (highest dose often 37.9 µM), for inactives: at the highest dose activity change, negative = inhibition, hits mostly inhibitors; Lassa virus pseudotype entry inhibition, cell reporter; control for the full effect not named in the record; actives 1.2% (n = 300,000); active means well fitted inhibition curve with a large enough effect; inconclusive means small, poorly fitted or top-dose-only effect, or effect the other way; inactive means flat fitted curve, though single readings scatter; tested in HEK293 cells; also: % is scaled to controls: 0 for no effect and ±100 for the full control effect; nearly all actives have a fitted effect of over 50% in size; luciferase read-out
Marburg entry inh: blocks Marburg virus binding to or entry into cells. Marburg virus pseudotyped entry inhibition, cell reporter; control for the full effect not named in the record; about a third of the inactives were read at about 46 µM. Potency, µM (doses to about 37.8 µM), for the others: top-dose activity change, negative = inhibition, actives largely listed as inhibitors. actives 1.8% (n = 300,000). AID 540276; active = well fitted inhibition curve with a large enough effect; inconclusive = small, poorly fitted or top-dose-only effect, or effect the other way; inactive = flat fitted curve, though single readings scatter; tested in HEK293 cells; about a fifth of its hits are not listed in these tables; also: % is scaled to controls: 0 for no effect and ±100 for the full control effect; luciferase read-out
SARS PLP yeast: SARS-CoV PLP inhibition in yeast; actives 0.19% (n = 330,000); AID 485353; Potency, µM (top dose mostly 32.9 µM), inactives show at the top dose activity, positive = growth rescue; S. cerevisiae expressing SARS-CoV PLpro, growth rescue; control for the full effect not named in the record; active means well fitted rising curve with a large enough effect; inconclusive means small, poorly fitted or top-dose-only effect; inactive means no such curve, though single readings can be large or run the other way; also: 0% is about no effect; nearly all actives have a fitted effect of over 55% in size; growth read by luminescence after 48 h
* marks the source's active call; other numbers are inactive results; ? = inconclusive; nt = not tested or not shown; & = joins results of further samples; [ ] = dose if it differs, or a comment. Unless noted, calls follow the shape of the dose curve; as a rule, active = well fitted curve in the direction sought with a large enough effect; inconclusive = small, poorly fitted or top-dose-only effect, or another doubt; inactive = no such curve, though single readings can be large; an effect the other way counts as inactive or inconclusive. Potency is read from the fitted curve at half-maximal effect. Hits appear at their usual frequency. Share with any hit: about 4.7%.

SMILES	2A StopGo	RE007 growth inh	Cruzain Triton	Cruzain inh noDet	NS1 function inh	Lassa entry inh	Marburg entry inh	SARS PLP yeast
CCC(=O)N1CCc2cc(S(=O)(=O)NCCC(=O)Nc3ccc(CC)cc3)ccc21	-11%	nt	-2.8%	-1%	nt	-11%[46.1 µM]	7%[46.1 µM]	nt
CCOc1cc(CNc2ccc(N3CCCC3)cc2)cc(Cl)c1OC	-11%	?	-3.0%	-3%	8%	?	-20%	0%
COc1c(C)cc(C(=O)C2CCCN(C(=O)/C=C/c3ccccn3)C2)cc1C (stereo unspecified)	3%	-4%	nt	nt	-5%	10%	5%[46.1 µM]	-1%
N#C/C(=C\c1cccc([N+](=O)[O-])c1)C(=O)Nc1cccnc1	-14%	-10%	nt	nt	nt	5%	10%[46.1 µM]	1%
COc1ccc2[nH]c(=O)c(CN(c3ccccc3)S(=O)(=O)c3ccccc3)cc2c1	-1%	-12%	nt	nt	0%	-10%	9%	2%
CCOc1ccc(C(=O)Nc2ccncc2)cc1	nt	-14%	2.9%	5%	-31%	-11%	-16%	-25%
Cc1ccc(-n2nnnc2SCc2nnc(-c3ccccc3Br)o2)c(C)c1	nt	10%	-5.2%	1%	-74%	?	?	-4%
O=C1CN(C(=O)c2ccc(S(=O)(=O)N3CCCC3)cc2)C(c2ccc(F)cc2)c2cc(F)ccc2N1 (stereo unspecified)	-14%	nt	-2.2%	3%	nt	?	-19%[46.1 µM]	nt
COc1ccc(CCNC(=O)C(Sc2ccccn2)c2ccccc2)cc1OC (stereo unspecified)	?	0%	nt	nt	-1%	-6%	0%	1%
O=C(N=C1SC2CS(=O)(=O)CC2N1c1cccc(Cl)c1Cl)C1CC1 (stereo unspecified)	-19%	-1%	nt	nt	9%	nt	nt	-2%
CC(=O)c1cccc(NC(=O)c2noc3c2CC(C)CC3)c1 (stereo unspecified)	38%[activator]	nt	-1.1%	4%	nt	21%[46.1 µM]	nt	nt
Cc1ccccc1Nc1nc(NCc2ccco2)c2ccccc2n1	?	-12%	nt	nt	nt	?	?	-3%
O=C(CCc1cnccn1)NC1CCCc2c1cnn2-c1ccc(F)cc1F (stereo unspecified)	-13%	2%	nt	nt	-2%	nt	nt	1%
CCC(C)NC(=O)CSc1nc2n[nH]c(C)c2c(=N)n1-c1ccc(C)c(Cl)c1 (stereo unspecified)	-5%	nt	-2.4%	-9%	nt	-18%[46.1 µM]	nt	nt
COc1ccc(-c2nsc3c(N4CCCCC4C)ncnc23)cc1 (stereo unspecified)	0.032µM*	-16%	nt	nt	-8%	nt	nt	-2%
Cc1ccc(Cl)cc1N1CCN(C(=O)C2CCN(S(=O)(=O)c3cccc4nonc34)CC2)CC1	?	nt	-1.4%	4%	nt	-24%[46.1 µM]	?	nt
CC(=O)NCCC(Cc1ccccc1)c1ccco1 (stereo unspecified)	-16%	-5%	?	-17%	5%	4%	?	3%
COc1cccc(Cn2nnc(C(=O)NCc3ccc4c(c3)OCO4)c2N)c1	-27%	-20%	nt	nt	nt	-12%	9%[46.1 µM]	3%
COc1ccc(CCNC(=O)c2ccccc2OCc2ccccc2)cc1	-25%	12%	nt	nt	-44%	-28%	-30%	-6%
Nc1nc(-c2ccco2)nn1S(=O)(=O)c1ccccc1	10%	0%	nt	nt	6%	2%	-20%[46.1 µM]	0%
CCOC(=O)/C(=N\Nc1cc(Cl)ccc1Cl)N1CCN(C)CC1	-2%	96%	-6.2%	-4%	4%	8%	?	-4%
O=C(c1ccc2c(c1)OCO2)N1CCC2(CC1)OCCO2	-12%	15%	0.8%	-4%	1%	-20%	-8%	0%
CCCN1C(=O)C2(C(C(=O)c3ccc(C)o3)=C(O)C(=O)N2CCCN2CCOCC2)c2ccccc21 (stereo unspecified)	13%	14%	0.0%	1%	-1%	-10%	0%	3%
O=C(CN1CCCCC1)Nc1ccccc1Cl	32%[activator]	16%	nt	nt	1%	nt	nt	-1%
O=C(ON=C1CCN(S(=O)(=O)c2ccccc2)CC1)c1ccc(F)cc1	10%	0%	-6.8%	1%	-15%	21%	0%	-10%
CCOc1ccc(NC(=O)Cn2c(=O)cc(C)c3c(C)nn(-c4ccc(CC)cc4)c32)cc1	-7%	nt	0.7%	8%	nt	7%[46.1 µM]	nt	nt
CC(Sc1nc2ccccc2[nH]1)C(=O)Nc1ccccc1F (stereo unspecified)	-16%	-11%	nt	nt	nt	14%[46.1 µM]	?	-1%
Cc1cccc(NS(=O)(=O)c2ccc(-n3cccn3)cc2)c1C	-24%&-24%	9%	-5.4%	-10%	7%	?	-25%&-25%[46.1 µM]	5%
CCCCOc1ncnc2c1[nH]c1ccc(OCC)cc12	20%	0%	6.1%	-2%	-10%	-9%	13%	18%
CC(=O)c1ccc(OCc2cc(C(=O)N3CCN(c4ccccc4)CC3C)no2)cc1 (stereo unspecified)	-8%	-12%	nt	nt	1%	nt	nt	-3%
OCc1nc2ccccc2n1CCc1ccccc1	12%	-8%	nt	nt	-6%	nt	nt	7%
COc1cc(Nc2nc(SCC#N)nc3ccccc23)cc(OC)c1OC	9%	-7%	0.9%	3%	-7%	1%	-1%	-3%
O=C1CCC(C(=O)NCCN2C(=O)S/C(=C\c3cccnc3)C2=O)=NN1	-11%	0%	nt	nt	nt	7%	?	-4%
CCn1cnc2sc(C(=O)Nc3ccccc3OC)c(C)c2c1=O	-7%	3%	nt	nt	?	nt	nt	2%
CCCCSC(=S)N(C)C1CCS(=O)(=O)C1 (stereo unspecified)	-5%	6%	0.3%	4%	9%	-7%	8%	-21%
CCOC(=O)/C=C1\SCC(=O)N1CC(=O)NC1CCCCC1	nt	-5%	3.4%	0%	3%	-12%	4%	-4%
CCOc1ccccc1-n1nnnc1SCC(=O)OC	-12%	6%	nt	nt	nt	15%	-6%[14.2 µM]	0%
CC1CN(/C=C/C(=O)C(F)(F)F)CC(C)O1 (stereo unspecified)	-8%	33%	nt	nt	nt	4%[46.1 µM]	0%[46.1 µM]	1%
C=CCNC(=S)NC(=O)c1oc2ccccc2c1C	26%	2%	nt	nt	-1%	3%[46.1 µM]	?	-1%
Cc1ccc(NC(=O)CCN2C(=O)c3cccc([N+](=O)[O-])c3C2=O)c(Br)c1	8%	2%	nt	nt	-8%	8%	4%	0%
CC(c1ccccc1)N(CCC(c1ccccc1)C1CCOC(C)(C)C1)C(=O)c1ccco1 (stereo unspecified)	?	nt	-8.7%	?	-12%	?	4µM*	-8%
COc1ccc(-c2noc(-c3cccnc3N3CCN(c4ccc(OC)cc4)CC3)n2)cc1	?	nt	-3.7%	-1%	nt	13%[46.1 µM]	3%[46.1 µM]	nt
Cc1ccc(S(=O)(=O)NCc2ccccn2)c(C)c1C	58%[activator]	-19%	nt	nt	30%	nt	nt	6%
CC1CCN(c2ccc(C(=O)O)cc2N)CC1	3%	5%	2.8%	-8%	0%	2%	14%[46.1 µM]	4%
C=CCn1c(SCC(=O)c2cc(C)n(Cc3cccs3)c2C)nnc1-c1ccncc1	0%	2%	2.2%	-5%	-3%	-1%	-2%	4%
CCN1CCN(c2nc3c(C)cccn3c(=O)c2/C=C(\C#N)C(=O)NCCCOC)CC1	-1%	4%	nt	nt	2%	5%[46.1 µM]	-29%[46.1 µM]	0%
CCCn1nc(C(=O)NCc2ccc3c(c2)OCO3)c2ccccc2c1=O	-5%	18%	nt	nt	nt	?	9%[46.1 µM]	-10%
O=C1CC2(CCN(C(=O)COc3ccc(Cl)cc3)CC2)Oc2ccccc21	-23%	9%	nt	nt	nt	?	5%[46.1 µM]	-1%
CCc1cc2c(=O)c(-c3nc4ccccc4n3C)c(C)oc2cc1OC(C)=O	-9%	0%[18.4 µM]	nt	nt	-24%	nt	nt	0%
Cc1cc(N2CC(C(=O)NCc3cccnc3)CC2=O)ccc1C(C)C (stereo unspecified)	-10%	1%	nt	nt	-3%	nt	nt	-1%
NC(=S)N/N=C1\CC(n2nnnc2-c2ccccc2)C2COC1O2 (stereo unspecified)	11%	-1%	nt	nt	-1%	nt	nt	13%
CSc1ccc(Cl)c(C(=O)Nc2ccc(N3CCOCC3)cc2)c1	1%	12%	nt	nt	2%	0%[46.1 µM]	?	0%
CN(CC(=O)Nc1cccc(F)c1)C(=O)c1cc(S(=O)(=O)N(C)C)ccc1N1CCCC1	-2%	-3%	nt	nt	9%	-4%	2%	3%
CN(c1ccccc1)S(=O)(=O)c1ccc(C(=O)NCc2ccccn2)cc1	-15%	10%	nt	nt	nt	-3%	-6%[46.1 µM]	-3%
CCc1c(C(=O)NNC(=S)NCC(C)C)csc1C	39%[activator]	0%	3.7%	-7%	10%	-2%	4%	nt
CC(=O)Nc1ccc(NC(=O)CSc2ccc(-c3ccc4c(c3)OCO4)nn2)cc1	10%	51%	0.1%	?	4%	25%	?	-13%
COc1ccc2[nH]c(=O)c(CN(C(=O)c3cccc(Cl)c3)c3cccc(C)c3)cc2c1	-26%	nt	-4.1%	-18%	nt	5%[46.1 µM]	4%[46.1 µM]	nt
Cc1nc(NCc2ccccc2)c(C(N)=O)c2c1COC(C)(C)C2	-29%	8%	-3.1%	-1%	-20%	0%	1%	4%
Cc1cc(=O)oc2c(C)c(OCC(=O)N3CCN(Cc4ccc5c(c4)OCO5)CC3)ccc12	-12%	-2%	nt	nt	-6%	-27%[46.1 µM]	4%[46.1 µM]	4%
CCN(CC)C(=O)c1ccccc1NS(=O)(=O)c1cccs1	17%	-3%	nt	nt	19%	2%	?	3%

(cont.)
SMILES	2A StopGo	RE007 growth inh	Cruzain Triton	Cruzain inh noDet	NS1 function inh	Lassa entry inh	Marburg entry inh	SARS PLP yeast
CSCCC(=O)N1CC[C@@H](N2CCN(c3ccccc3F)CC2)[C@H](O)C1	-17%	6%	nt	nt	7%	nt	nt	-1%
CN1C(=O)C(=Cc2ccc(N3CCCCC3)o2)C(=O)N(C)C1=S	20%	19%	0.4%	-12%	-9%	19%	?	2%
CC(=O)Nc1ccc(S(=O)(=O)N(CCO)Cc2ccccc2)cc1	5%	24%	6.1%	-8%	4%	9%	?	7%
O=C(Nc1ccccc1)Nc1ccc(C(F)(F)F)cn1	51%[activator]	-4%	nt	nt	1%	nt	nt	1%

From PubChem
